# Mtb H37Rv: Confirmatory growth inhibition assay against Mycobacterium tuberculosis H37Rv, potency (AID 1949). most inactive calls were filed without a number and no value below 0 was filed. inhibition, % at 10 µg/mL, or IC50 in µg/mL where a hit was titrated. 100,000 tested, 1.6% active;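 active means confirmed in a dose series; inconclusive means about 50% or more but not retested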;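 further: bacteria grown 7 days with compound before Alamar blue readout; 0% = untreated bacteria and 100% = reference antibiotic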
# Numbers without * were called inactive; i = inactive; ? = inconclusive. An excerpt. The share of hits here may be higher or lower than overall.
# Start of the data: the first 2 records (preview)
structure | Mtb H37Rv
Cc1cccc(N(Cc2ccc(Cl)cc2)S(C)(=O)=O)c1 | i
CC(C)OC(=O)CSc1nnc(-c2ccc(N(C)C)cc2)o1 | <0.1µg/mL*

# Main list, repeating the preview:
structure | Mtb H37Rv
Cc1cccc(N(Cc2ccc(Cl)cc2)S(C)(=O)=O)c1 | i
CC(C)OC(=O)CSc1nnc(-c2ccc(N(C)C)cc2)o1 | <0.1µg/mL*
CCOc1ccccc1OC(=O)c1ccc(C(C)(C)C)cc1 | i
N#CC1=C(N)Oc2n[nH]c(-c3ccccc3)c2C1c1ccc(N2CCOCC2)cc1 (stereo not given) | 0%
Cc1nnc(SCC(=O)Nc2cccc([N+](=O)[O-])c2)s1 | i
COc1cc(NC(=O)c2cc(-c3ccccc3)nc3ccccc23)cc(OC)c1 | i
CCN(CC(=O)NC1CC2CCC1C2)c1ccccc1 (stereo not given) | 1%
Cc1cccc(OCC(=O)Nc2ccc(S(=O)(=O)N3CCC(C)CC3)cc2)c1 | i
CCC(C(=O)Nc1ccc(Nc2ccccc2)cc1)c1ccccc1 (stereo not given) | i
CS(=O)(=O)N1CCC(C(=O)Nc2ccc3c(c2)OCCO3)CC1 | i
Cn1nc(-c2ccc(OCC(=O)N3CCOCC3)cc2)c2ccccc2c1=O | i
O=C(NCc1ccc(-c2nc3ccccc3s2)cc1)c1cccs1 | i
Cc1ccc(SCCC(=O)Nc2ccc(Cl)cc2C)cc1 | 0%
C=CCn1c(SCC(=O)Nc2sc3c(c2C#N)CCCC3)nnc1-c1ccco1 | i
O=C(NCCc1ccccc1F)C(=O)Nc1ccc(Br)cc1 | i

# Rewritten field by field: part of the list above.
CS(=O)(=O)N1CCC(C(=O)Nc2ccc3c(c2)OCCO3)CC1
  Mtb H37Rv: i

Cn1nc(-c2ccc(OCC(=O)N3CCOCC3)cc2)c2ccccc2c1=O
  Mtb H37Rv: i

O=C(NCc1ccc(-c2nc3ccccc3s2)cc1)c1cccs1
  Mtb H37Rv: i

Cc1ccc(SCCC(=O)Nc2ccc(Cl)cc2C)cc1
  Mtb H37Rv: 0%

# Continuation.
structure | Mtb H37Rv
O=S(=O)(Nc1nc(-c2ccccc2)c(-c2ccccc2)o1)c1ccc(Cl)cc1 | i
Cc1ccc(OCCSc2nnc(NC(=O)C3CCCCC3)s2)cc1 | i
O=C(COc1ccc(C(=O)NC2CCCCC2)cc1)NC1CCCCC1 | i
CCc1c(C)sc(NC(=S)NNC(=S)Nc2ccc(F)cc2F)c1C(=O)OC | 2%
O=S1(=O)N=C(Nc2ccccc2Cl)c2ccccc21 | i
O=[N+]([O-])c1ccc(O)c(-c2nc(-c3cccs3)c(-c3cccs3)[nH]2)c1 | 97µg/mL*
O=C1CC(c2ccco2)CC(O)=C1C=Nc1ccccc1-c1ccccc1 (stereo not given) | 8%
c1ccc(Cc2nnc3sc(-c4cc5ccccc5o4)nn23)cc1 | i
O=C(Nc1cccc(Cl)c1Cl)N1CCN(C(=O)C2CCCO2)CC1 (stereo not given) | 1%
CCC(=O)Nc1ccc(S(=O)(=O)N(C)C2CCCCC2)cc1 | 1%
S=c1[nH]nc(-c2ccc(Cl)cc2)n1CCCN1CCOCC1 | i
N#CCCSCc1ccc2oc(C(=O)O)cc2c1 | i
Cc1cc(Cl)ccc1NC(=O)c1cccnc1 | i
O=C1C(=O)N(c2nccs2)C(c2cccc(Cl)c2)/C1=C(\O)c1ccc(Cl)cc1 (stereo not given) | i
CC(C)(C)c1ccc(C(=O)N2CCC(C(=O)N3CCC(Cc4ccccc4)CC3)CC2)cc1 | 6%
N#CC1=C(SCC(=O)NC2CCCCC2)NC(=O)CC1c1ccco1 (stereo not given) | i
Cc1ccc(C(C)C)c(OCC(=O)Nc2ccc(S(=O)(=O)Nc3onc(C)c3C)cc2)c1 | i
COC(=O)Cc1ccc(NC(=S)NCc2ccco2)cc1 | i
O=C(CSc1nnc(-c2ccncc2)o1)Nc1ccccc1F | i
Cc1ccc(-n2ncc3c(N4CCN(c5ccc(F)cc5)CC4)ncnc32)c(C)c1 | i
COc1ccc(N(C(=O)c2cccnc2)S(=O)(=O)c2ccccc2)cc1 | 3%
CN(C)CCOCCOc1ccc(Br)cc1 | i
Cc1cccc(N/C(N)=N/c2nc(C)cc(C)n2)n1 | 12%
COCCn1c(SCC(=O)Nc2ccc(F)c(Cl)c2)nnc1-c1ccccc1 | i
CCCCn1c2ccccc2c2nnc(SCC(=O)c3ccccc3)nc21 | i
CCOc1cc(C(=O)Nc2ncn[nH]2)cc(OCC)c1OCC | i
CSCC(NS(=O)(=O)c1ccc(Br)cc1)C(=O)O (stereo not given) | i
CCOC(=O)C1CCN(C(=S)Nc2ccc(F)cc2)CC1 | i
Cc1cccc(-c2noc(-c3ccc(Cl)cc3)n2)c1 | i
CCOC(=O)c1conc1-c1cccnc1 | i
O=C(Oc1ccccc1)c1ccc(COc2cccc3ccccc23)o1 | ?
OC(COCc1ccccc1)CN1CCCC1 (stereo not given) | 1%
Cc1ccc(S(=O)(=O)N(CC(=O)Nc2ccc(F)cc2)Cc2ccc(Br)cc2)cc1 | 3%
COc1ccc2oc(=O)c(-c3nnc(Nc4ccccc4C)s3)cc2c1 | i
CCN(CC)S(=O)(=O)c1ccc(OC)c(NC(=O)c2sc3ccccc3c2Cl)c1 | i
CCC(=O)NC(c1ccc(OC)c(OC)c1)c1cc(Cl)c2cccnc2c1O (stereo not given) | i
CC(=O)Nc1ccc(S(=O)(=O)Nc2cccc(NC(=O)C(C)(C)C)c2)cc1 | i
C=CCn1c(COc2ccccc2)nnc1SCC(=O)Nc1ccc(I)cc1C | i
CC(=O)NS(=O)(=O)c1ccc(NC(=O)COc2ccc(Cl)cc2Cl)cc1 | i
O=C(O)COc1ccc(NC(=O)c2ccc(NC(=O)c3ccco3)cc2)cc1 | i
O=C(NC1CCCCCCC1)c1cc2ccccc2oc1=O | i
CCOC(=O)Nc1cccc(NC(=O)c2cc(OC)cc(OC)c2)c1 | i
CCOC(=O)c1c(NC(=O)c2cc3ccccc3oc2=O)sc(C(N)=O)c1C | i
O=C(CN1C(=O)COc2ccc(Cl)cc21)Nc1ccc2c(c1)OCO2 | i
S=C(Nc1ccc(Oc2ccccc2)cc1)Nc1ccccn1 | i
O=[N+]([O-])c1ccc(-c2noc(CCC3CCCCC3)n2)cc1 | i
CN(C)S(=O)(=O)c1ccc(I)cc1 | 4%
CCOc1ccccc1Oc1c(C)oc2cc(OC(=O)N3CCOCC3)ccc2c1=O | i
CCCCC(=O)NC1(C(F)(F)F)C(=O)N(c2ccc(C)cc2)C(C)=C1C(C)=O (stereo not given) | i
O=C(COc1ccccc1)Nc1nonc1NC(=O)COc1ccccc1 | 24%
O=C(Nc1ccccc1C(F)(F)F)C1CC(=O)N(c2ccc(Cl)cc2)C1 (stereo not given) | i
O=C(c1ccc(F)cc1)N1CCN(c2ccccn2)CC1 | i
O=C(Nc1cccc(-c2cn3cccnc3n2)c1)c1cc2ccccc2oc1=O | i
CCCC(=O)c1cc(F)c(N2CCN(CCC#N)CC2)cc1C | i
COc1ccc(C)cc1N(CC(=O)Nc1ccc(I)cc1C)S(C)(=O)=O | 3%
CCOC(=O)c1ccc(NC(=S)NCc2ccc(C(=O)O)cc2)cc1 | i
O=C(COc1ccc(Br)cc1)Nc1cc(C(F)(F)F)ccc1N1CCOCC1 | i
COc1ccc(CCNC(=O)c2cc(-c3cc(Cl)ccc3Cl)oc2C)cc1OC | i
CNC(=S)N1CCN(c2ccc(C)cc2C)CC1 | i
O=C(Nc1nnc(SCc2ccccc2)s1)c1sc2ccccc2c1Cl | i

# Next part.
structure | Mtb H37Rv
CCS(=O)(=O)Nc1cccc(C2=NN(S(=O)(=O)c3ccccc3)C(c3cccs3)C2)c1 (stereo not given) | i
CCOc1ccc(NS(=O)(=O)c2ccc(NC(=O)Nc3ccc(Cl)cc3)cc2)cc1 | i
COc1ccc(S(=O)(=O)N(CC(=O)Nc2ccc(F)c(Cl)c2)c2ccccc2)cc1 | i
CCOc1ccc(C(=O)NC(CC)CC)cc1OCC | i
CCOC(=O)c1cnc(-c2cccc(OC)c2)[nH]c1=O | 38%
CC1=C(C(=O)Nc2ccccc2)C(c2cccs2)n2c(s/c(=C3/C(=O)Nc4ccccc43)c2=O)=N1 (stereo not given) | 5%
CCOc1ccc(NC(=O)C2(c3ccccc3)CCOCC2)cc1 | i
O=C1CC(N2CCN(c3ccc(F)cc3)CC2)C(=O)N1c1cccc(C(F)(F)F)c1 (stereo not given) | i
Cc1ccc(C(=O)NC(=O)CSc2nnc(C)s2)cc1 | i
COCCNC(=O)c1c(Cl)cccc1Cl | i
CCCN(CCC)C(=O)CC(c1ccccc1)C1CCOC(C)(C)C1 (stereo not given) | i
CS(=O)(=O)N1CCN(C(=O)Cc2ccccc2Cl)CC1 | i
CN(C)CCCNCCCOc1cccc2ccccc12 | i
O=C(CSc1nc2cc(Cl)ccc2s1)Nc1ccc2c(c1)OCCO2 | 14%
CC(=O)Nc1ccc(S(=O)(=O)Nc2cccc(-c3cn4cccc(C)c4n3)c2)cc1 | i
Cc1ccc(S(=O)(=O)Nc2ccc(Cl)c(C(F)(F)F)c2)cc1C(N)=O | i
Cc1ccc(Cl)c2c1NC(=O)C2(O)CC(=O)c1ccco1 (stereo not given) | i
Cc1ccc(N2CCN(CC(=O)Nc3cc(Cl)ccc3Cl)CC2)cc1C | 4%
O=C(NCC1CCCO1)c1ccc(COc2ccc(F)cc2)o1 (stereo not given) | i
Cc1nc(SCC(=O)N2CCC(C)CC2)c2c3c(sc2n1)CCC3 | i
CN(CC(=O)Nc1ccccc1C(=O)N1CCCC1)S(=O)(=O)c1ccc(Cl)cc1 | i
COCCCNC(=S)N1CCN(S(=O)(=O)c2ccc(OC)cc2)CC1 | i
Cc1nc(=S)c2sc3nc4c(cc3c2[nH]1)COC(C)(C)C4 | 1%
CCOc1ccc(N(CC(=O)Nc2ccc(F)c(F)c2)S(=O)(=O)c2ccc(Cl)cc2)cc1 | 0%
CCc1ccccc1NC(=O)c1cnn2cccnc12 | 0%
CCCCNCCOCCOc1ccc(Cl)c(CC)c1 | 8%
CSc1ccc(S(=O)(=O)NC(C)C)cc1 | i
Cc1cc(OCc2c(F)cccc2F)c2c3c(c(=O)oc2c1)CCCC3 | 21%
Cc1ccc(-c2nnc(N3CCN(C(=O)CN4C(=O)c5ccccc5C4=O)CC3)c3ccccc23)cc1 | i
Cn1c(=O)c2c(nc(NCc3ccco3)n2Cc2cccc3ccccc23)n(C)c1=O | i
O=C(O)C1CCN(c2nc(-c3ccccc3)c3cc(Br)ccc3n2)CC1 | 2%
Cc1cc(OCC(=O)N2CCOCC2)ccc1NC(=O)c1ccccc1Sc1ccccc1C#N | i
CS(=O)(=O)N(CCc1ccccc1)CC(=O)O | i
COc1ccccc1/C=C/C1=NN(c2ccc(Cl)cc2)C(c2ccccc2OC)C1 (stereo not given) | 7%
CCC(C)(C)c1ccc(OCCCCN2CCOCC2)cc1 | i
C=CCn1c(SCC(=O)Nc2ccc(Cl)cc2)nnc1-c1ccccc1O | i
Cc1ccc(C)c(NS(=O)(=O)c2cc(C(=O)N3CCCC3)ccc2Cl)c1 | i
CN(Cc1ccccc1)S(=O)(=O)c1ccc(NC(=S)NC(=O)c2ccc(Cl)cc2Cl)cc1 | i
CCOC(=O)c1ccc(NC(=O)C2CCN(S(=O)(=O)CC)CC2)cc1 | i
CCOc1ccc2nc(SCC(=O)N3CCN(c4ccccc4)CC3)sc2c1 | i
C=CCn1c(SCC(=O)Nc2ccc(C)c(C)c2)nnc1-c1cc2ccccc2o1 | 4%
COc1cc(-c2nnc(SCC(=O)O)n2-c2ccccc2)cc(OC)c1OC | i
CC1CC(C)CN(CCCCOc2ccc([N+](=O)[O-])cc2)C1 (stereo not given) | 0%
Cc1ccc(C(=O)Nc2ccc(OCC(N)=O)cc2)cc1Cl | i
O=C(CC(c1ccccc1)C1CCCC1=O)c1ccccc1 (stereo not given) | i
COc1ccc(NC(=S)NCc2ccc3c(c2)OCO3)c(OC)c1 | i
Cc1ccc(NC(=O)CCCOc2ccc(Cl)cc2Cl)cc1 | i
O=C(Nc1ccc2c3c(cccc13)CC2)c1ccc(N2CCCC2)c([N+](=O)[O-])c1 | i
O=C(Nc1nc2ccc(F)cc2s1)c1ccccc1Br | i
O=[N+]([O-])c1ccc(S(=O)(=O)c2cnc(NS(=O)(=O)c3ccc(Cl)cc3)s2)cc1 | i
O=C(NC(C(=O)N1CCOCC1)C12CC3CC(CC(C3)C1)C2)c1ccc(F)cc1 (stereo not given) | i
COc1ccc(-n2c(SC)nnc2-c2cccs2)cc1 | i
Cc1ccccc1C(=O)NC(=S)Nc1cccc(-c2nc3cc(C(C)C)ccc3o2)c1 | 1%
Cc1sc(N(C(=O)CCc2ccccc2)c2ccccc2Cl)nc1-c1ccccc1 | i
COC(=O)Nc1ncc(CN2CCOCC2)s1 | 3%
COc1ccccc1NC(=O)CSCc1nc2sc3c(c2c(=O)[nH]1)CCCC3 | 1%
CC(=O)c1c(C)nc(-c2ccc(Cl)cc2)nc1NC(=O)Cc1ccccc1 | i
CN(C(=O)COc1ccc2ccccc2c1)c1ccccc1 | 2%
Cn1c(SCC(=O)Nc2ccccc2F)nnc1-c1ccccc1 | i
Cc1cccc(NC(=O)CC(C)CC(=O)O)c1 (stereo not given) | i

# (listing goes on)
structure | Mtb H37Rv
COc1ccc(C(=O)Nc2ccccc2C(=O)NCCc2ccc(OC)c(OC)c2)cc1 | i
CCc1ccc(C(=O)Nc2ccc(C(=O)O)cc2)o1 | i
COc1cccc(N2C(=O)CC(N3CCC(C(N)=O)(N4CCCCC4)CC3)C2=O)c1 (stereo not given) | 2%
CCN(CC(=O)N1CCN(c2ccccc2)CC1)S(=O)(=O)c1ccc(C)cc1 | 9%
